YopH PTP inh – inhibitors of Yersinia enterocolitica YopH tyrosine phosphatase; fluorescence Ex485/Em525; inhibition, %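 (about 10 µM by stock and volumes)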; 140,000 compounds, 0.16% hits; AID 898;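 active means inhibition of 50% or more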;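 further: controls were vehicle for no effect and minimum signal wells for full effect; inactives centre near -20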
Arbovirus inh – blocks arbovirus infection; arbovirus infection cell-based antiviral screen; inhibition, % at 10 µM; 200,000 compounds, 0.37% hits; AID 1251;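 active means inhibition from about 30%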;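 further: bluetongue infection of BSR cells; cell survival read as ATP light after 72 h; 0% = infected wells without compound and 100% = uninfected wells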
Mtb bLac sens – beta-lactam sensitization of Mtb H37Rv; M. tuberculosis H37Rv growth with meropenem, percent inhibition; hits of this screen are not shown here; inhibition, % at 25 µM; 330,000 compounds, 0.27% hits;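 active means about 74% or more and at least 40 points above the plate without the antibiotic, then above 30% in a dose series; inconclusive means first-round hits that could not be retested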;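 further: growth measured after seven days incubation then overnight dye step; 0% = bacteria only wells and 100% = bacteria with antibiotic; twin plates without the antibiotic show which effects depend on it; some results filed as inactive read as strong as hits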
RecA intein inh – blocks M. tuberculosis RecA intein splicing; P9WHJ3; AID 2221; 290,000 compounds, 0.75% hits; inhibition, %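 (about 9 µM by stock and volumes)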; cell-free RecA intein splicing, fluorescence; in the data active means inhibition above about 30%; inconclusive means no clear call, values can overlap the other calls;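 further: 0% = vehicle wells and 100% = reference inhibitor control wells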
Target sequence (P9WHJ3 whole entry, looked up): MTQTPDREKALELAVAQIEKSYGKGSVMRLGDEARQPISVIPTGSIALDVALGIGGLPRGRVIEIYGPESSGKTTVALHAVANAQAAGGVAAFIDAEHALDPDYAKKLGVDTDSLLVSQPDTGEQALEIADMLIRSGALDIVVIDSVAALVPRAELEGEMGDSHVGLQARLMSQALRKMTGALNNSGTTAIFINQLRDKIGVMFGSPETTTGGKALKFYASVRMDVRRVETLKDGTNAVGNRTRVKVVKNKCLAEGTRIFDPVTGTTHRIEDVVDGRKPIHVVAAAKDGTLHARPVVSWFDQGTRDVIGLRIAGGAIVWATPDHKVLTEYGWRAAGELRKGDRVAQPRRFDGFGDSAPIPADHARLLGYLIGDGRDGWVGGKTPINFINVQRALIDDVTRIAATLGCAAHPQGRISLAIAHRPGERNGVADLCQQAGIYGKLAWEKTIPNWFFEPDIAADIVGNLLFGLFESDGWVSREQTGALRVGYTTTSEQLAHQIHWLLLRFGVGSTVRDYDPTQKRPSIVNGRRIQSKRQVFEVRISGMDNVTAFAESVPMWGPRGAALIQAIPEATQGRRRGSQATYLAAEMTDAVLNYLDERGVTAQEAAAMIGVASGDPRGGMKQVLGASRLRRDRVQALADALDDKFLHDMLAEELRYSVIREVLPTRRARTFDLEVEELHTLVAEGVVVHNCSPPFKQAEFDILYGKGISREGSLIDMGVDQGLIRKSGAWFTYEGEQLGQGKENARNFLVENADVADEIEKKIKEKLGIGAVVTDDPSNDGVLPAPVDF
Mtb growth – M. tuberculosis H37Rv growth inhibitors, H37Rv strain (AID 1626). inhibition, % at 10 µM, or IC50 in µM where a hit was titrated. M. tuberculosis H37Rv growth inhibition; higher % means a stronger effect. 220,000 compounds, 0.95% hits;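 active means confirmed in a dose series; inconclusive means inhibition above 80% but not taken into the dose series; inactive means below 80% or under 30% at every dose of the series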;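 further: bacteria incubated seven days before Alamar blue readout; 0% = bacteria only wells and 100% = bacteria with antibiotic wells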
Arbovirus inh repeat – further read-out of Arbovirus inh, marked with its call; inhibition, %; measured here: 10K subset replicate screen; many hits read low in the repeat;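 first of two repeat runs on a subset; 0% = infected and 100% = uninfected wells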
* = called active by the depositor; i = inactive; u = inconclusive; x = no result given. Not all compounds are listed; the hit share may differ from the screen's.

SMILES	YopH PTP inh	Arbovirus inh	Mtb bLac sens	RecA intein inh	Mtb growth	others
COc1cc(-c2nc3n(n2)C(c2ccc(F)cc2)C2=C(CCCC2=O)N3)cc(OC)c1OC (configuration not stated)	-24.8	-3.3	14.3	4.1	-2.2%
COc1ccccc1C(=O)OCC(=O)NCCNC(=O)COC(=O)c1ccccc1OC	x	x	2.2	-0.5	x
CNC(=O)c1ccccc1NC(=O)c1cccc(S(=O)(=O)N2CCCCC2)c1	x	-5.4	0.2	1.4	6.3%
O=C(NNC(=O)c1ccc[nH]1)Nc1cc(Cl)cc(Cl)c1	x	x	42.3	-2.6	-14.2%
CC(=O)NC(Cc1ccc(F)cc1)C(=O)O (configuration not stated)	-27.3	9.9	-4.5	-2.9	10.4%
COc1ccc(Cn2nnc3c(=O)[nH]c(C4CCCN(C(=O)c5ccccc5)C4)nc32)cc1 (configuration not stated)	-22.8	6.2	-0.9	-0.1	1.1%	Arbovirus inh repeat=6.9
Cc1cc(C)n(CC(O)COc2ccccc2[N+](=O)[O-])n1 (configuration not stated)	-21.7	6.9	-3.1	1.3	2.7%
COc1ccc(-n2nc(C(=O)NCC(=O)NCCN(C)C)c3ccccc3c2=O)cc1	x	x	-1.8	0.1	x
Cc1cccc(OCC(=O)Nc2nnn(C)n2)c1C	-6.5	4.1	1.3	-1.5	1.6%
COc1ccc(CCNC(=O)C2CCCN(S(=O)(=O)c3ccc(F)cc3)C2)cc1OC (configuration not stated)	x	x	1.4	-5.8	x
CCOc1ccccc1C(=O)NCC(=O)NCC(c1ccco1)N1CCCCC1 (configuration not stated)	x	x	-11.8	-1.2	x
COc1ccccc1NC(c1cccnc1)c1ccc2cccnc2c1O (configuration not stated)	-36.6	-22.0	6.8	0.9	-3.0%
COc1ccc(CCC(=O)NC2CCC(C)CC2)cc1 (configuration not stated)	x	x	-2.5	-0.9	x
N=c1occ(C(=O)c2cc(F)ccc2O)cc1C(=O)NC1CCCCC1	x	1.3	-4.1	-3.9	4.9%
Nc1cc(=O)[nH]c(SCC(=O)Nc2ccc(Br)cc2)n1	-12.4	-3.2	-2.7	-2.6	-3.3%
COc1ccc(N2CC(C(=O)NCc3nnnn3-c3ccc(C)c(C)c3)CC2=O)cc1 (configuration not stated)	x	x	7.9	-2.4	x
Cc1ccc(C)c(N2CCN(Cc3nnnn3C3CCCCC3)CC2)c1	9.1	-28.7	-0.3	9.4	2.4%
CCc1ccc(NC(=O)c2cc(-c3ccc(OC)cc3)on2)cc1	-10.7	0.5	-9.2	-1.3	1.5%
CCOC(=O)C1C(=O)CC(C)(O)C(C(=O)OCC)C1c1ccc2c(c1)OCO2 (configuration not stated)	2.9	x	-1.5	-3.0	-3.5%
NS(=O)(=O)c1cccc(NC(=O)CCCNC(=O)c2ccc(Cl)cc2)c1	x	x	2.1	1.0	x
Cc1cc(C)c(S(=O)(=O)Cc2ccc(Cl)cc2)c(=O)[nH]1	x	3.5	0.4	-4.7	-2.8%
CCOC(=O)c1nc2sc3c(c2c(=O)n1C(C)C(=O)OCC)CCCC3 (configuration not stated)	x	-6.8	87.7	3.5	2.2%
Cc1cccc(C(=O)NCCNC(=O)c2cnccn2)c1	x	x	1.3	5.9	x
Clc1nc(CN2CCCCC2)nc2sc3c(c12)CCCC3	x	-7.6	-3.7	6.6	1.9%
COC(=O)c1scc2c(=O)cc(C(F)(F)F)[nH]c12	x	x	-0.6	i	6.2%
The listing continues.
SMILES	YopH PTP inh	Arbovirus inh	Mtb bLac sens	RecA intein inh	Mtb growth	others
Cc1ccc(CNC(=O)CCCNC(=O)c2ccc(Cl)cc2)n1C	-12.9	0.9	-18.3	-6.2	-2.0%
CC1=NN(C(=O)CSCc2ccccc2)C(O)(c2ccccc2)C1 (configuration not stated)	x	-17.8	8.5	-2.3	1.9%
OC(CN1CCCCC1)Cn1c(C(F)(F)F)nc2ccccc21 (configuration not stated)	-35.6	3.3	5.7	7.5	0.6%
Cc1cc(C(=O)Nc2ccc([N+](=O)[O-])cn2)cs1	x	x	-3.7	-2.6	x
COc1cc(CNc2ccc3[nH]c(=O)[nH]c3c2)cc(Br)c1OCc1ccccc1F	x	x	-0.2	-1.8	x
COC(=O)c1cccnc1-n1c(=O)c2cccnc2n(Cc2ccc([N+](=O)[O-])cc2)c1=O	x	2.9	-2.1	-3.5	0.2%
O=C(COC(=O)c1n[nH]c2ccccc12)Nc1ccc(S(=O)(=O)N2CCCC2)cc1	-37.6	4.8	-7.9	x	-4.8%
C[C@@H]1C=C[C@](Cc2ccccc2)(C(=O)O)N1C(=O)c1ccccc1	x	x	-2.6	-1.1	-17.6%
CC1CCN(S(=O)(=O)c2ccc3c(c2)N(CC(=O)NCCCN2C(C)CCCC2C)C(=O)CO3)CC1 (configuration not stated)	x	x	-1.5	-0.4	x
NS(=O)(=O)c1ccc(N/N=C2/CCCCC2C2CCCCC2)c([N+](=O)[O-])c1 (configuration not stated)	-19.3	-38.2	6.7	6.2	9.0%
O=C(NCCSCc1ccccc1)c1ccc(Cl)c(S(=O)(=O)N2CCOCC2)c1	7.2	-3.8	-13.6	2.6	1.4%
Cc1sc(NC(=O)C2=COCCO2)nc1-c1ccc(Cl)cc1	x	x	-6.2	-0.9	x
COC(=O)Cn1c(CN2CCOCC2)nc2c1c(=O)[nH]c(=O)n2C	-22.6	-0.1	-2.1	-0.3	-5.0%
COc1ccc(S(=O)(=O)N2CCN(c3cc(-c4ccccc4)nc4ncnn34)CC2)cc1	-40.8	10.7	98.8	-0.9	79.5%
CN1CC[n+]2cnc3ccccc3c21	-39.5	0.0	-8.4	x	-4.0%
O=C1NCC(O)=C1C=NCCO	-21.9	1.8	-3.2	1.2	-2.2%
CCn1c(C)c(C)c2cc(C(=O)N3CCN(c4cccc(C)c4C)CC3)ccc21	x	x	72.1	18.9	x
CC1CCc2c(sc3nc(CSc4ncn[nH]4)[nH]c(=O)c23)C1 (configuration not stated)	-24.9	16.5	92.4	0.1	u
COc1cc(NC(=O)c2ccc(C(C)(C)C)cc2)c(OC)cc1NC(=O)CN1CCCCC1	x	-22.0	64.6	0.2	u
COc1ccc(C(=O)Nc2cc(Cl)ccc2Cl)c(OC)n1	-34.8	4.9	-1.2	-2.1	-2.4%
COc1ccc(C(=O)NC(=S)NNC(=O)c2cnccn2)cc1	-2.6	-27.7	-11.2	1.8	-3.6%
CC(C)(C)NC(=O)/C(=C/c1ccccc1F)NC(=O)c1ccc([N+](=O)[O-])cc1	x	20.3	-4.8	0.2	-2.1%
CC(=O)c1ccc(OCC(C)C)c(CC(C(N)=O)C(N)=O)c1	-28.4	2.7	-2.4	-3.7	-9.9%	Arbovirus inh repeat=3.5
Cc1[nH][nH]c(=O)c1N=Nc1ccccc1Cl	x	x	4.8	3.4	-2.3%
CC(Sc1nnc(-c2cccnc2)n1C)C(=O)N1CCOCC1 (configuration not stated)	x	x	-2.8	-2.1	x
Later entries
SMILES	YopH PTP inh	Arbovirus inh	Mtb bLac sens	RecA intein inh	Mtb growth	others
CC(=O)/C=C(\C)N=Nc1c(O)[nH]c2ccccc12	x	x	5.9	3.7	1.5%
COc1ccc(CCNC(=O)Cc2ccc([N+](=O)[O-])cc2)cc1OC	x	x	-7.2	x	-4.0%
Cc1c(CNC(=O)c2c([N+](=O)[O-])cnn2C)cnn1C	x	10.8	-5.6	-1.7	1.0%
CC(=O)N1N=C(c2c(-c3ccccc3)c3cc(Br)ccc3[nH]c2=O)CC1c1ccco1 (configuration not stated)	x	x	25.3	26.5	-1.8%
CCOc1nc2cnccc2n(CC(=O)Nc2cccc(C)c2C)c1=O	x	x	-3.8	-2.1	x
COc1ccc(-c2ccc(=O)n(CC(=O)Nc3ccc4c(c3)OCCO4)n2)cc1	x	-6.1	1.4	0.7	-2.2%
CC(=O)Nc1sc(C)c(C)c1C(=O)OCC(=O)N(CC(C)C)C1CCS(=O)(=O)C1 (configuration not stated)	-26.0	-3.8	9.3	0.6	-0.5%
COC(=O)c1cc(C(=O)Nc2cc(C)ccn2)cc([N+](=O)[O-])c1	-45.8	8.5	-10.8	3.2	-0.8%
OC(COc1c(F)cc(Br)cc1F)CN1CCOCC1 (configuration not stated)	x	x	7.5	-1.8	x
O=C(CC(=O)N/N=C\c1cccc(Cl)c1Cl)NCc1ccccc1	-30.8	1.6	9.9	0.3	1.2%
CC(C)OP(=O)(OC(C)C)C(Nc1ccc(C(=O)O)cc1)c1ccccc1 (configuration not stated)	x	x	-4.3	-1.7	-8.7%
CCCC(=O)N1CCN(c2ccc([N+](=O)[O-])c(NC(C)c3ccccc3)c2)CC1 (configuration not stated)	-32.2	21.7	-1.3	5.5	-1.2%
COc1cccc(-c2cc(C(=O)N3CCc4ccccc4C3)no2)c1	-29.4	10.7	-1.6	9.0	3.9%
CC(=O)NCCC(=O)Nc1nc2ccc(Oc3ccccc3)cc2s1	x	x	6.4	0.2	x
Cc1nn(C(C)C(=O)NCCCc2ccccc2)c(=O)c2cc3occc3n12 (configuration not stated)	-7.5	-5.2	-1.4	-1.0	-11.0%
CC(C)(C)C(=O)Nc1ccccc1C(=O)OCC(=O)c1ccc2c(c1)OCCO2	-35.5	0.7	1.0	0.3	0.8%
C[C@@H](NC(=O)[C@@H]1Cc2ccccc2CN1)C(=O)NCC1CCCO1 (some centres not stated)	x	x	0.7	0.8	x
Cc1ccccc1-c1nnn(CC(=O)Nc2cccc(S(N)(=O)=O)c2)n1	x	0.1	-0.9	0.5	-13.5%
CC1=C(C(=O)N2CCCC(N3CCN(c4ccccc4C)CC3)C2)OCCO1 (configuration not stated)	x	x	6.2	0.0	x
CCOC(=O)c1c(C)n(C)c2ccc(OC(=O)c3ccc(N4C(=O)CCC4=O)cc3)cc12	-17.6	3.3	15.7	-6.2	7.0%
Cc1ccc(S(=O)(=O)N[C@H](C(=O)NCC2CCC(C(=O)O)CC2)C(C)C)cc1 (some centres not stated)	x	x	3.7	0.6	x
O=C1c2ccccc2OC2(C=Cc3ccccc3O2)N1Cc1ccccc1 (configuration not stated)	-2.8	-19.3	39.1	31.6*	x
O=C(COc1ccc(Br)cc1)N1CCN(C2CCCC2)CC1	-16.3	3.6	-9.7	-1.0	13.7%
CCN(CC)c1ccc(N2C(=O)/C(=C/c3cccs3)SC2=S)cc1	-28.8	-8.8	9.2	-6.1	-9.6%
CCc1ccc2c(c1)C1(C(=O)N2)N2CCCC2C(C(=O)c2ccc3ccccc3c2)C12C(=O)Nc1ccccc12 (configuration not stated)	-35.9	-42.2	93.3	9.9	2.97µM*

Of the compounds above, three contain an aryl thioether with sulfur outside any ring:
SMILES	YopH PTP inh	Arbovirus inh	Mtb bLac sens	RecA intein inh	Mtb growth	others
Nc1cc(=O)[nH]c(SCC(=O)Nc2ccc(Br)cc2)n1	-12.4	-3.2	-2.7	-2.6	-3.3%
CC1CCc2c(sc3nc(CSc4ncn[nH]4)[nH]c(=O)c23)C1 (configuration not stated)	-24.9	16.5	92.4	0.1	u
CC(Sc1nnc(-c2cccnc2)n1C)C(=O)N1CCOCC1 (configuration not stated)	x	x	-2.8	-2.1	x

(cont.)
SMILES	YopH PTP inh	Arbovirus inh	Mtb bLac sens	RecA intein inh	Mtb growth	others
O=C(CSc1nc2ncc(Cl)cc2[nH]1)Nc1ccccc1-c1ccccc1	x	x	-2.6	6.7	x
COc1ccc(CN2CCCCC2C)cc1C (configuration not stated)	-12.9	-5.2	-2.5	1.8	-21.2%
O=C(Cc1ccc(Cl)cc1)c1c[nH]c(C(=O)NCc2cccnc2)c1	x	12.0	4.5	0.7	1.4%
O=C1c2ccccc2C(Nc2ccc(Cl)cn2)N1c1ccccn1 (configuration not stated)	-22.7	-5.5	-4.5	0.6	13.4%	Arbovirus inh repeat=1.8
COc1cccc(C(=O)O/N=C(\N)c2ccc(C)cc2)c1	x	x	0.7	7.7	x
COc1cccc(CNC(=O)c2ccncc2)c1	x	x	-7.2	-0.7	x
N#CC1=C(N)C(C#N)(C#N)[C@H](c2ccncc2)[C@H]2CC3(CC=C12)OCCO3	-19.7	10.0	-9.2	8.2	-11.2%
CC(=NCCCO)c1c(O)[nH]c(=O)[nH]c1=O	x	x	-19.1	-1.0	-1.5%
CCOC(=O)c1ccc(NC(=O)NCc2ccccc2)cc1	x	1.4	1.5	-0.5	33.9%
CCc1ccc(NC(=O)C2CC(=O)N=C(N)S2)cc1 (configuration not stated)	-12.6	1.6	-7.7	-1.4	-11.8%

Reprinted at random: two compounds from above
SMILES	YopH PTP inh	Arbovirus inh	Mtb bLac sens	RecA intein inh	Mtb growth	others
O=C(Cc1ccc(Cl)cc1)c1c[nH]c(C(=O)NCc2cccnc2)c1	x	12.0	4.5	0.7	1.4%
COc1ccc(CN2CCCCC2C)cc1C (configuration not stated)	-12.9	-5.2	-2.5	1.8	-21.2%

Screening data as filed in PubChem BioAssay.
